Screening results deposited in PubChem BioAssay by Broad Institute.
Ecoli rRNA inh – inhibitors of bacterial rRNA selective over humanized ribosomes. GFP signal change (wild-type ribosome), % (concentration not given with the values). 1.6% of 350,000 active. E. coli WT GFP vs humanized-ribosome RFP mutants, fluorescence, 24 h; hits give low values; DMSO median 0, no signal -100;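 active = significant combined selectivity score with lowered wild-type GFP, culture density cut under 30%, mutant RFP and density less affected; inactive = any of these conditions unmet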; also: one replicate is shown; some compounds called inactive have numbers as strong as hits
Ecoli rRNA inh OD600 – second read-out of Ecoli rRNA inh, no call of its own (marks repeat the call); OD600 change, %; measured here: OD600 growth;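 optical density of the mix in the first replicate; 0 = DMSO median and -100 = no signal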
Ecoli rRNA inh RFP – further read-out of Ecoli rRNA inh, marked with its call; RFP signal change, %; measured here: RFP humanized mutant strains;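 first replicate; 0 = DMSO median and -100 = no signal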
Starred values were filed as active, the others as inactive. The list is partial; rates above refer to the full screens.

(1) Cc1noc(C)c1NC(=O)Nc1ccc2c(c1)C(=O)N([C@@H](C)CO)C[C@@H](C)[C@@H](CN(C)CC1CCCCC1)OCCCC[C@H](C)O2
(2) COc1ccc(NC(=O)N(C)C[C@@H]2Oc3ccc(NS(=O)(=O)c4ccc(C)cc4)cc3C(=O)N([C@@H](C)CO)C[C@H]2C)cc1
(3) CN1NC(=O)c2ccccc2NC1=S
(4) CCCNC(=O)C[C@H]1C[C@H]2c3cc(NC(=O)C4CCOCC4)ccc3O[C@H]2[C@H](CO)O1
(5) COc1ccc(NC(=O)Nc2ccc3c(c2)C(=O)N([C@H](C)CO)C[C@H](C)[C@H](CN(C)C(=O)Nc2ccccc2)O3)cc1
entry no.	1	2	3	4	5
Ecoli rRNA inh	0.0	1.5	4.4	2.2	-1.0
Ecoli rRNA inh OD600	-6.8	-4.0	15.1	0.2	3.3
Ecoli rRNA inh RFP	-0.8	-0.7	-2.8	-1.2	1.5

(6) O=C(C[C@@H]1CC[C@@H](NC(=O)Nc2ccccc2)[C@H](CO)O1)NCc1cccc(F)c1
(7) C[C@H]1CCCCO[C@H](CN(C)C)[C@@H](C)CN([C@@H](C)CO)C(=O)c2cc(NS(=O)(=O)c3cccs3)ccc2O1
(8) CSc1ccccc1-c1ccc2nccn2c1
(9) C[C@@H]1CN([C@H](C)CO)C(=O)c2cccc(NC(=O)Nc3cccc4ccccc34)c2O[C@H]1CN(C)C(=O)Nc1cccc2ccccc12
(10) CCCCC(c1nc2ccccc2[nH]1)n1c(=O)c(-c2ccccc2)nc2cc(C)c(C)cc21 (stereo unspecified)
entry no.	6	7	8	9	10
Ecoli rRNA inh	1.2	-1.6	-11.4	-7.4	8.3
Ecoli rRNA inh OD600	0.0	1.5	-12.6	-4.1	20.0
Ecoli rRNA inh RFP	-1.9	0.0	-0.4	-0.1	-0.2

Part of the list above, with values under each structure:
Screens in order – Ecoli rRNA inh, Ecoli rRNA inh OD600, Ecoli rRNA inh RFP
5) COc1ccc(NC(=O)Nc2ccc3c(c2)C(=O)N([C@H](C)CO)C[C@H](C)[C@H](CN(C)C(=O)Nc2ccccc2)O3)cc1
→ -1.0, 3.3, 1.5
6) O=C(C[C@@H]1CC[C@@H](NC(=O)Nc2ccccc2)[C@H](CO)O1)NCc1cccc(F)c1
→ 1.2, 0.0, -1.9

(more compounds)
(11) O=C(C[C@H]1CC[C@H]2[C@@H](COC[C@@H](O)CN2C(=O)Nc2cccc(Cl)c2)O1)NCCCN1CCOCC1
(12) COC(=O)c1cc(=O)c2c(ccc3oc(=O)ccc32)[nH]1
(13) COC(=O)C[C@@H]1CC[C@H]2[C@@H](COc3ccc(NC(=O)NC(C)C)cc3C(=O)N2C)O1
(14) O=C(c1ccncc1)N1CCCCN2[C@H](C1)[C@H](c1ccc(C#Cc3ccccn3)cc1)[C@@H]2CO
(15) C[C@H]1CN([C@@H](C)CO)C(=O)Cc2cc(NC(=O)Cc3cn(C)c4ccccc34)ccc2O[C@@H]1CN(C)S(C)(=O)=O
entry no.	11	12	13	14	15
Ecoli rRNA inh	-57.5	7.3	1.5	1.7	-0.3
Ecoli rRNA inh OD600	-75.8	7.5	3.5	-1.1	-4.6
Ecoli rRNA inh RFP	-17.8	-2.5	1.0	-0.8	-1.1

(16) CNC[C@@H]1Oc2ncc(Br)cc2C(=O)N([C@H](C)CO)C[C@@H]1C
(17) O=S(=O)(N[C@H]1CC[C@@H](CCn2cc(C3CC3)nn2)O[C@H]1CO)c1ccc(Cl)cc1
(18) O=C(C[C@H]1C[C@@H]2c3cc(NC(=O)c4ccc5c(c4)OCO5)ccc3O[C@@H]2[C@H](CO)O1)NC1CCCC1
(19) C[C@@H]1CN([C@@H](C)CO)C(=O)c2cc(C#Cc3ccccc3F)cnc2O[C@H]1CN(C)S(=O)(=O)c1ccccc1F
(20) COc1ccc2c3c(n(C)c2c1)[C@H](CO)N(C)CC31CN(S(C)(=O)=O)C1
entry no.	16	17	18	19	20
Ecoli rRNA inh	4.7	-2.2	1.7	1.2	3.4
Ecoli rRNA inh OD600	3.9	-7.2	8.7	3.8	11.5
Ecoli rRNA inh RFP	-0.7	0.0	-1.2	2.6	-1.6

Part of the list above in order of number of heavy atoms, smallest number first:
(16) CNC[C@@H]1Oc2ncc(Br)cc2C(=O)N([C@H](C)CO)C[C@@H]1C
(20) COc1ccc2c3c(n(C)c2c1)[C@H](CO)N(C)CC31CN(S(C)(=O)=O)C1
(13) COC(=O)C[C@@H]1CC[C@H]2[C@@H](COc3ccc(NC(=O)NC(C)C)cc3C(=O)N2C)O1
(14) O=C(c1ccncc1)N1CCCCN2[C@H](C1)[C@H](c1ccc(C#Cc3ccccn3)cc1)[C@@H]2CO
(15) C[C@H]1CN([C@@H](C)CO)C(=O)Cc2cc(NC(=O)Cc3cn(C)c4ccccc34)ccc2O[C@@H]1CN(C)S(C)(=O)=O
entry no.	16	20	13	14	15
Ecoli rRNA inh	4.7	3.4	1.5	1.7	-0.3
Ecoli rRNA inh OD600	3.9	11.5	3.5	-1.1	-4.6
Ecoli rRNA inh RFP	-0.7	-1.6	1.0	-0.8	-1.1

(listing goes on)
(21) O=C(Nc1cccc(F)c1)N1CC(=O)N2[C@@H](CO)[C@H](c3ccc(-c4ccccc4F)cc3)[C@@H]2C1
(22) OC[C@@H]1CN(Cc2ccc3c(c2)OCO3)C[C@H](n2cnc3c(NCc4ccc(F)cc4)ncnc32)O1
(23) N#Cc1cccc(-c2ccc3c(c2)[C@H]2[C@H](CCN2S(=O)(=O)c2ccccc2)[C@H](CO)N3)c1
(24) CC(C)C#Cc1cnc2c(c1)C(=O)N([C@@H](C)CO)C[C@H](C)[C@@H](CN(C)Cc1ccc3c(c1)OCO3)O2
(25) O=C(O)C[C@H]1C[C@@H]2c3cc(NC(=O)Nc4ccccc4)ccc3O[C@@H]2[C@H](CO)O1
entry no.	21	22	23	24	25
Ecoli rRNA inh	-13.9	-1.6	-8.3	5.4	-0.1
Ecoli rRNA inh OD600	-36.7	-14.6	-23.6	-0.6	2.2
Ecoli rRNA inh RFP	24.6	2.7	3.7	0.0	-1.1

(26) CC(C)NC(=O)N(C)C[C@H]1Oc2cc(-c3ccncc3)ccc2S(=O)(=O)N([C@H](C)CO)C[C@H]1C
(27) C[C@H](CO)N1C[C@H](C)[C@H](CN(C)Cc2ccc(C(=O)Nc3ccccc3N)cc2)Oc2ccc(NC(=O)C3CC3)cc2CC1=O
(28) CCC(=O)N(C)C[C@H]1Oc2cc(Br)ccc2S(=O)(=O)N([C@@H](C)CO)C[C@@H]1C
(29) O=C1c2ccccc2C(c2nnnn2Cc2ccccc2)N1Cc1cccnc1 (stereo unspecified)
(30) COCC(=O)NC[C@@H]1[C@@H](c2ccc(C3=CCCC3)cc2)[C@H](CO)N1C(C)=O
entry no.	26	27	28	29	30
Ecoli rRNA inh	-1.8	-1.9	-0.7	10.1	0.0
Ecoli rRNA inh OD600	-2.5	-12.0	-2.8	8.7	5.6
Ecoli rRNA inh RFP	-2.3	0.2	0.1	0.7	-2.3

(31) CC(=O)N1C[C@@H](CO)[C@@H](N(C)C(=O)C(C)(C)C)C[C@H]1c1ccccc1Br
(32) CCNC(=O)[C@H]1[C@H](CO)[C@H]2Cn3c(ccc(C4=CCCCC4)c3=O)[C@@H]1N2C(=O)Cc1ccccn1
(33) C=CCN(CC=C)Cc1cc(=O)oc2ccc3ccccc3c12
(34) Cn1ccc2c(-c3ccc(C(N)=O)cc3)cc3c(c21)C1CCC3O1 (stereo unspecified)
(35) Cc1ccccc1S(=O)(=O)N(C)C[C@H]1OCc2ccccc2-c2ccccc2C(=O)N([C@@H](C)CO)C[C@@H]1C
entry no.	31	32	33	34	35
Ecoli rRNA inh	6.5	1.5	-8.5	2.1	12.4
Ecoli rRNA inh OD600	13.9	4.1	-14.6	1.7	-11.4
Ecoli rRNA inh RFP	4.7	-4.8	-4.9	7.6	3.5

(36) Cc1ccc(S(=O)(=O)N[C@@H]2C=C[C@H](CC(=O)NC3CCCCC3)O[C@@H]2CO)cc1
(37) COc1ccc2c3c(n(C)c2c1)[C@H](CO)N(CC1CCOCC1)CC31CN(C(=O)Nc2ccccc2)C1
(38) COC(=O)C[C@@H]1C[C@H]2c3cc(NC(=O)NC4CCCC4)ccc3O[C@H]2[C@@H](CO)O1
(39) NCC[C@H]1CC[C@H](NS(=O)(=O)c2ccc(Cl)cc2)[C@@H](CO)O1
(40) C[C@@H]1CCCCO[C@H](CN(C)C(=O)NC2CCCCC2)[C@H](C)CN([C@@H](C)CO)C(=O)c2cc(NS(=O)(=O)c3cn(C)cn3)ccc2O1
entry no.	36	37	38	39	40
Ecoli rRNA inh	-2.1	-1.0	4.2	2.6	-2.3
Ecoli rRNA inh OD600	-1.5	3.2	1.2	7.8	-6.8
Ecoli rRNA inh RFP	1.8	6.0	1.2	2.5	1.3

(41) COc1cccc(S(=O)(=O)N[C@H]2C=C[C@H](CC(=O)NCc3ccc(Cl)cc3)O[C@@H]2CO)c1
(42) Cc1noc(C)c1NC(=O)Nc1cccc2c1O[C@H](CN(C)Cc1ccc3c(c1)OCO3)[C@H](C)CN([C@H](C)CO)C2=O
(43) C[C@@H]1CCCCO[C@H](CN(C)S(=O)(=O)c2cccs2)[C@@H](C)CN([C@H](C)CO)C(=O)c2cc(NS(=O)(=O)c3ccccc3)ccc2O1
(44) C[C@H]1CCCCO[C@H](CN(C)CC2CCCCC2)[C@@H](C)CN([C@@H](C)CO)C(=O)c2cc(NC(=O)CCC(F)(F)F)ccc2O1
(45) COc1cc(C=NCc2ccccc2)ccc1O
(46) COc1ccc(NC(=O)N(C)C[C@@H]2Oc3ncc(C#CCC(C)C)cc3C(=O)N([C@@H](C)CO)C[C@H]2C)cc1
(47) CCC(=O)N1C[C@@H](C)[C@@H](OC)CN(C)C(=O)c2ccc(NC(=O)C3CCCCC3)cc2OC[C@H]1C
entry no.	41	42	43	44	45	46	47
Ecoli rRNA inh	-6.0	1.5	-3.4	4.1	2.7	-4.9	-4.0
Ecoli rRNA inh OD600	-2.9	2.2	-5.9	6.0	10.3	-6.9	-4.0
Ecoli rRNA inh RFP	-0.3	-0.4	-1.6	0.3	-0.1	4.6	-1.9
